MenB inh – inhibitors of Mycobacterium tuberculosis MenB enzyme; P9WNP5; MenB enzyme assay, absorbance read-out; some hits fall short of the stated cut; inhibition, %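 (about 12 µg/mL by stock and volumes)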; hit rate 0.43% among 100,000;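 active = mean of two replicates above 30%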;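 note: 0% = no compound and 100% = wells with inactive enzyme; the first replicate is given; strong numbers were not always called active; inactives centre near -10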
Target sequence (P9WNP5 whole entry, looked up): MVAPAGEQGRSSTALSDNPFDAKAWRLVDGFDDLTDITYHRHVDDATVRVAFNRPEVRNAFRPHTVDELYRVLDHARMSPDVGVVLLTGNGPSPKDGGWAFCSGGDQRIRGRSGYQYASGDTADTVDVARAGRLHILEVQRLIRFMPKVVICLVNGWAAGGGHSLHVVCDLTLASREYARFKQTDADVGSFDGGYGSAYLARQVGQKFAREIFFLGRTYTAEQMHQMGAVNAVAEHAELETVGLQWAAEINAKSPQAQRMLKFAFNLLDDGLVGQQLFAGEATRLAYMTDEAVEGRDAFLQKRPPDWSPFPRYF
Polio RdRp inh – inhibitors of poliovirus RNA polymerase binding and polymerization | P03300 | poliovirus polymerase elongation, fluorescence polarization; hits give low values | % elongation, % (compound at 16.7 µg/mL) | hit rate 0.66% among 150,000; in the data active = % elongation below about 90%; note: some results filed as inactive read as strong as hits
MbtI inh – MbtI salicylate synthase inhibition. P9WFX0. purified MbtI enzyme, fluorescence intensity read-out. inhibition, %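 (about 17 µg/mL by stock and volumes)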. hit rate 0.89% among 100,000. AID 493033;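 active = above 50% in both replicates, above 80% if mildly self-fluorescent; inactive = the rest, strongly fluorescent compounds included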;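 note: 0% = mean of negative and 100% = mean of positive controls; one replicate is shown; some compounds called inactive have numbers as strong as hits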
Polio RdRp inh intensity – further read-out of Polio RdRp inh, marked with its call; % elongation; measured here: total intensity read-out; formula for this scale not given here;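 total fluorescence in place of polarization; lower means less elongation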
* hit, by the source's call; i = inactive; · = not tested or not shown; & = joins results of further samples.

A first look:
SMILES	MenB inh	Polio RdRp inh	Polio RdRp inh intensity	MbtI inh
CCn1ccc(C(=O)Nc2ccccc2C(=O)OC)n1	-8	102	102	-1
CC(Cc1cccc(C(F)(F)F)c1)NCCOC(=O)c1ccccc1 (configuration not stated)	-5&11	100&100	101&102	-18&-4
O=C(CN1C(=O)c2ccccc2C1=O)Nc1nnc(-c2ccc3c(c2)OCCO3)o1	-12	101	101	5
COC(=O)c1ccccc1O	·	102	103	-8
CN[C@@H]1[C@H](O)[C@H](NC)[C@H]2O[C@@]3(O)C(=O)C[C@@H](C)O[C@H]3O[C@@H]2[C@H]1O	-1&-10	99&101	100&96	0&-14
CCCOc1ccc(C(=O)OCCN(CC)CC)cc1N	-9	104	96	-61
Cc1scc2c1N(C(=O)CN1CCN(C)CC1)c1ccccc1NC2=O	-6&-3	101&101	101&103	-12&-8
CCCOc1ccc2nc(NC(=O)OC)[nH]c2c1	-1	100	99	-64
COCCNC(=O)c1ccc2c(c1)nc(C)n2-c1ccc(Br)cc1	-31	102	100	-16
N=c1nc(N2CCCCC2)cc(N)n1O	-6&3&-11	101&101&99&101	105&104&101&96	-4&-13&2
Cc1ccc(Nc2nc(N)nc(CN3CCC(C(N)=O)CC3)n2)cc1	4	102	102	-4
COc1ccc(C(=O)c2ccccc2)c(O)c1	4&3	98&100	101&102	-4&-14
Cc1ccccc1OCC(O)CO (configuration not stated)	0&1	99&100	103&100	14&-16
Nc1c2ccccc2nc2ccccc12	5	99	99	i
CCc1cccc(CC)c1NC(=O)CN(CC(=O)O)CC(=O)O	-7	101	102	-16
CC(C)n1c(SCC(=O)Nc2ccccc2)nc2ccccc2c1=O	-8	97	118	-5

Results, from the first entry:
SMILES	MenB inh	Polio RdRp inh	Polio RdRp inh intensity	MbtI inh
CCn1ccc(C(=O)Nc2ccccc2C(=O)OC)n1	-8	102	102	-1
CC(Cc1cccc(C(F)(F)F)c1)NCCOC(=O)c1ccccc1 (configuration not stated)	-5&11	100&100	101&102	-18&-4
O=C(CN1C(=O)c2ccccc2C1=O)Nc1nnc(-c2ccc3c(c2)OCCO3)o1	-12	101	101	5
COC(=O)c1ccccc1O	·	102	103	-8
CN[C@@H]1[C@H](O)[C@H](NC)[C@H]2O[C@@]3(O)C(=O)C[C@@H](C)O[C@H]3O[C@@H]2[C@H]1O	-1&-10	99&101	100&96	0&-14
CCCOc1ccc(C(=O)OCCN(CC)CC)cc1N	-9	104	96	-61
Cc1scc2c1N(C(=O)CN1CCN(C)CC1)c1ccccc1NC2=O	-6&-3	101&101	101&103	-12&-8
CCCOc1ccc2nc(NC(=O)OC)[nH]c2c1	-1	100	99	-64
COCCNC(=O)c1ccc2c(c1)nc(C)n2-c1ccc(Br)cc1	-31	102	100	-16
N=c1nc(N2CCCCC2)cc(N)n1O	-6&3&-11	101&101&99&101	105&104&101&96	-4&-13&2
Cc1ccc(Nc2nc(N)nc(CN3CCC(C(N)=O)CC3)n2)cc1	4	102	102	-4
COc1ccc(C(=O)c2ccccc2)c(O)c1	4&3	98&100	101&102	-4&-14
Cc1ccccc1OCC(O)CO (configuration not stated)	0&1	99&100	103&100	14&-16
Nc1c2ccccc2nc2ccccc12	5	99	99	i
CCc1cccc(CC)c1NC(=O)CN(CC(=O)O)CC(=O)O	-7	101	102	-16
CC(C)n1c(SCC(=O)Nc2ccccc2)nc2ccccc2c1=O	-8	97	118	-5
CC(C)NNC(=O)c1ccncc1	0&-8	100&101	103&98	9&-20
CCN(CCCCOC(=O)c1ccc(OC)c(OC)c1)C(C)Cc1ccc(OC)cc1 (configuration not stated)	-2&-6	100&99	98&101	-3&-8
CN(CC1COc2ccccc2O1)c1ccc(S(=O)(=O)N2CCOCC2)cn1 (configuration not stated)	6	105	107	-3
O=C(O)c1cc(=O)c2ccccc2o1	7	101	102	-8
COC(=O)N/N=C/c1c[n+]([O-])c2ccccc2[n+]1[O-]	2	99	101	8
CCCCOc1cc(C(=O)OCCN(CC)CC)ccc1N	2	101	101	-21
CC1O[C@@H](O[C@@H]2C(CO)O[C@@H](OCC3O[C@@H](OC(=O)C45CC[C@@H](C)[C@H](C)[C@H]4C4=CC[C@@H]6[C@@]7(C)C[C@@H](O)[C@H](O)[C@@](C)(CO)C7CC[C@@]6(C)[C@]4(C)CC5)C(O)[C@H](O)[C@@H]3O)C(O)[C@@H]2O)C(O)[C@@H](O)[C@H]1O (some centres not stated)	-3	100	100	-11
Cc1cc(=O)oc2cc(O)ccc12	-9	99	100	75
CCCCC(=O)O[C@]1(C(=O)CO)[C@@H](C)CC2C3CCC4=CC(=O)C=C[C@]4(C)[C@@]3(F)C(O)C[C@@]21C (some centres not stated)	9	99	103	-26
The list goes on.
SMILES	MenB inh	Polio RdRp inh	Polio RdRp inh intensity	MbtI inh
C[C@@H]1C[C@H]2[C@@H]3CCC4=CC(=O)C=C[C@]4(C)[C@@]3(Cl)[C@@H](O)C[C@]2(C)[C@@]1(OC(=O)c1ccco1)C(=O)CCl	-2	100	101	-5
CC(C)(C)NCC(O)COc1cccc2c1CC(O)C(O)C2 (configuration not stated)	13	98	103	2
CC(=O)OCC(=O)[C@@]1(O)CC[C@H]2[C@@H]3CCC4=CC(=O)C=C[C@]4(C)[C@@]3(F)[C@@H](O)C[C@@]21C	4	99	103	-10
CCn1c(C(=O)N2CCCC(C(=O)N3CCc4ccccc4C3)C2)cc2sccc21 (configuration not stated)	-7	101	103	7
c1ccc(-n2cnnn2)cc1	-68	102	99	-3
CCCCN(CCCC)CCCOC(=O)c1ccc(N)cc1	-18&-2	100&99	102&103	-1&-13
O=C1c2c(O)ccc(O)c2C(=O)c2c(NCCNCCO)ccc(NCCNCCO)c21	0&2	-53*	-38*	-7&-7
CCn1cc(C(=O)O)c(=O)c2cc(F)c(N3CCNC(C)C3)c(F)c21 (configuration not stated)	0&-1	103&99	102&99	58&13
COc1cc(C2Oc3cc(C4Oc5cc(O)cc(O)c5C(=O)C4O)ccc3OC2CO)ccc1O (configuration not stated)	-28	103	102	6
CC[C@]12CCCN3CCc4c(n(c5ccccc45)[C@](O)(C(=O)OC)C1)[C@@H]32	-21&-5	102&101	101&101	-4&-13
CCCCCCCCCCCCCCC[C@@H](O)[C@@H](N)CO	3	97&99	105&104	-2
CC(C)(C)NCC(O)COc1cccc2c1C[C@H](O)[C@H](O)C2 (some centres not stated)	-4&-8	99&100	102&102	-4&-11

Screening data from PubChem BioAssay.

An excerpt; count on the stated rates, not on these rows.
